Six1-Eya2 inh: qHTS Assay for Inhibitors of the Six1/Eya2 Interaction | AID 651725, 2012 | Homeobox protein SIX1 (Homo sapiens) + Protein phosphatase EYA2 (Homo sapiens), … | 360,000 tested, 0.56% active | activity change, % (concentration not given with the values) | AlphaScreen GST-Six1/His-Eya2 binding, biochemical; active compounds read low; control for the full effect not named in the record; in the data active = activity change below about -65%; inconclusive = about -30% to -65%; inactive = above about -30%; note: % is set by controls: 0 for no effect and ±100 for the full control effect
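AlphaScreen luminescence read after one hour at 37 °C in darkness. Pin-transferred compounds met GST-Six1 and His-Eya2 protein (5X stock 250 nM/500 nM) plus glutathione donor and Ni-chelate acceptor beads (5X, 50 ug/mL).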
D2 ag: Beta-Arrestin HTS for Positive Allosteric Modulators of the Human D2 Dopamine Receptor: Agonists; D(2) dopamine receptor (Homo sapiens), P14416; DiscoveRx PathHunter D2 beta-arrestin, luminescence, 90 min; 100% = 57 uM dopamine signal; activation, % (no concentration beside the values); 360,000 tested, 0.084% active; AID 624465, 2012; in the data active = activation above about 40%; inconclusive = about 15% to 40%; inactive = below about 15%; note: compound concentration not given in the record; the text of the record calls up to 30% inactive
Target sequence (P14416 whole entry, looked up): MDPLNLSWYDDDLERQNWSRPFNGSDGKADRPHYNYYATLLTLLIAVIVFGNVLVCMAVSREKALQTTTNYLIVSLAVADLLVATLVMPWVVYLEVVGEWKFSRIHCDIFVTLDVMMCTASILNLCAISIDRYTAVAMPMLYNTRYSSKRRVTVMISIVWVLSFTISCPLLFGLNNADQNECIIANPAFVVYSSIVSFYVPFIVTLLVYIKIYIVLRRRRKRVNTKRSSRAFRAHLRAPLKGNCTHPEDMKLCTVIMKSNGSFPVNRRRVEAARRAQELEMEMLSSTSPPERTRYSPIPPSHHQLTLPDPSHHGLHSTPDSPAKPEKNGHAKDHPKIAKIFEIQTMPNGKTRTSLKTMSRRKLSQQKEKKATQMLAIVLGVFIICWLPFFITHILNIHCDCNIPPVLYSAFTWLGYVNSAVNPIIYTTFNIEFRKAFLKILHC
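Agonist mode: compounds alone added to overnight-plated D2 PathHunter cells for 90 min at 37 C, with 57 uM final dopamine (EC100) defining full response. Beta-arrestin recruitment detected by chemiluminescent reagent, read after 1 h at ambient temperature.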
D2 PAM: Beta-Arrestin HTS for Positive Allosteric Modulators of the Human D2 Dopamine Receptor: Potentiators. D(2) dopamine receptor (Homo sapiens), P14416. DiscoveRx D2 beta-arrestin cells, luminescence, 90 min; 100% = 57 uM dopamine signal. potentiation, % (concentration not given with the values). 360,000 tested, 0.23% active; active = potentiation of 50% or more; inconclusive = 30% to 50%; inactive = 30% or less;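 note: compound concentration not given in the record; tested on top of an EC20 dose of dopamine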
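PathHunter D2 cells, attached overnight at 37 deg C, received compound in DMSO plus dopamine at EC20 (50 nM final) for 90 min at 37 deg C. Beta-arrestin recruitment was read as luminescence after 1 h with detection reagent at ambient temperature.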
TRPML1 blocker: qHTS for Inhibitors of the Human Mucolipin Transient Receptor Potential 1 (TRPML1) | Mucolipin-1 (Homo sapiens), Q9GZU1 | TRPML1-inducible cells, Ca2+ dye fluorescence, FDSS; active compounds read low; inhibition of EC80 agonist-evoked calcium signal | activity change, negative = inhibition, % (concentration not given with the values) | 390,000 tested, 0.02% active | AID 624415, 2012; in the data active means activity change below about -50%; inconclusive means about -30% to -50%; inactive means above about -30%;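 note: stimulus is agonist 54-4 at its EC80 concentration; % is set by controls: 0 for no effect and ±100 for the full control effect; the text of the record puts the active cut at -80%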
Target sequence (Q9GZU1 whole entry, looked up): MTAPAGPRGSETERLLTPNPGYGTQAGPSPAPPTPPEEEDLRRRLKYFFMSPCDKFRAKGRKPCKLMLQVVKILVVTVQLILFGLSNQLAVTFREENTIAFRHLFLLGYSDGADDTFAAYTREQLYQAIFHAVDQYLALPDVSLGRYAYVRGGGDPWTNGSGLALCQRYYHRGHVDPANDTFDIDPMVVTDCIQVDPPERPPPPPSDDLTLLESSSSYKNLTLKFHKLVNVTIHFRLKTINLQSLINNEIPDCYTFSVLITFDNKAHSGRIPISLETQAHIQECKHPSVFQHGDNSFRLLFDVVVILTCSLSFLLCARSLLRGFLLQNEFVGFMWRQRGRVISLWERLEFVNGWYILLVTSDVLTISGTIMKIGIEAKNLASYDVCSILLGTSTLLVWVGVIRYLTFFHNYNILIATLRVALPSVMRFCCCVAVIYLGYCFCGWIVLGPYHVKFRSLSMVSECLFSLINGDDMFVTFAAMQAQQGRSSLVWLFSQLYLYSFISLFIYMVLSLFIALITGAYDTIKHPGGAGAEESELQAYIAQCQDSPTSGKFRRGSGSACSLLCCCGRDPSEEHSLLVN
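Calcium fluorescence in TRPML1-DL cells induced overnight with Tet: a 110 s read after compound pin addition, then a 110 s antagonist read after challenge with 54-4 at 4 uM final (EC80).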
TRPML1 ag: qHTS for Agonists of the Human Mucolipin Transient Receptor Potential 1 (TRPML1); TRPML1-expressing cells, Ca2+ dye fluorescence, FDSS; host cell line not named in the record; reference of the full effect not given here; activation, % (concentration not given with the values); 410,000 tested, 0.12% active; AID 624414, 2012; in the data active = activation above about 50%; inconclusive = about 30% to 50%; inactive = below about 30%; note: 0% is about no effect; the text of the record puts the active cut at 80%
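Tet-induced TRPML1-DL cells, 1,500 per well, cultured overnight, were loaded with a no-wash Ca2+ dye for 45–90 min. Calcium fluorescence was recorded on the FDSS for 110 s after compound addition, before the EC80 agonist (4 uM 54-4) was added.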
PINK1 modulator: A Quantitative High throughput Screen to Identify Chemical Modulators of PINK1 Expression | AID 624263, 2012 | Potency, µM (titrated, usually from 76.6 µM), for inactives: at the highest dose activation (PINK1 increase), most hits filed as activators | 410,000 tested, 0.2% active | PINK1 immunofluorescence, high-content cytometry, 24 h; active = well fitted activation curve with a large enough effect; inconclusive = small, poorly fitted or top-dose-only effect; inactive = flat fitted curve, though single readings scatter; cell line not stated here;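 note: potency is the fitted concentration of half-maximal effect; % of control where 0% means no effect; nearly all actives have a fitted effect of over 65% in size; a mitochondrial uncoupler was the plate control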
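Measures PINK1 amount and localization on or inside mitochondria by immunofluorescence. Stable cells get compounds at 5 concentrations for 24 hours before fixation and staining; CCCP controls included.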
* hit, by the source's call; u = inconclusive; x = not tested or not shown; [ ] = remark or other dose.

SMILES | Six1-Eya2 inh | D2 ag | D2 PAM | TRPML1 blocker | TRPML1 ag | PINK1 modulator
COc1cccc(C(=O)Oc2cc3c4c(c2)C(C)=CC(C)(C)N4C(=O)C3=O)c1 | -11.1 | -3.6 | -18.7 | 5.3 | 2.1 | x
C#CCN1C(=O)S/C(=C\c2ccc(-c3ccc(Cl)c(C(=O)O)c3)o2)C1=O | -5.4 | 3.0 | -7.0 | x | x | -0.3%
CCOCCCn1c(SCC(=O)N2CCOCC2)nc2ccccc2c1=O | -1.3 | -0.8 | -0.7 | 22.1 | 0.0 | 2.0%
CC(SCc1ccccc1)C(=O)Nc1ccccc1F (stereo not given) | 14.6 | 4.1 | -2.2 | 41.0 | -1.7 | -0.9%
COc1cccc2sc(NC(=O)CS(=O)(=O)c3ccc(C)cc3)nc12 | x | x | x | -15.0 | 2.7 | -0.1%
CCOc1ccc(CCN2C(=O)C(=O)N([C@@H](Cc3ccccc3)CN3CCC[C@H]3CN3C(=O)C(=O)NC[C@@H]3CC(C)C)C[C@@H]2Cc2ccc(O)cc2)cc1 | -1.3 | x | x | x | -0.2 | -0.1%
O=c1cc2c(c(-c3ccccc3)n1Cc1ccccc1)[C@@H](CCO)NC2 | 0.0 | 1.4 | x | -8.5 | -0.8 | -0.2%
CCOc1ccc(CN(C)CC(=O)Nc2ccc(N3CCOCC3)cc2)cc1OC | -1.7 | 2.0 | 17.8 | -10.9 | -0.5 | -1.0%
Cc1ccc(NC(=O)Cn2c(=O)n(CCCCC(=O)NCc3ccco3)c(=O)c3ccccc32)cc1 | 0.0 | 0.2 | 10.9 | -10.3 | 0.0 | 2.9%
COCCCN1C(=O)c2ccc(C(=O)OCC(=O)NCc3cccc(OC)c3)cc2C1=O | -1.8 | 1.8 | 10.8 | 1.3 | 4.6 | 0.9%
CN1CCC(Oc2ccccc2Sc2ccc(C(F)(F)F)cc2)CC1 | -10.9 | -4.8 | -7.8 | 3.9 | 0.5 | 8.1%
CCOc1ccccc1C1C(C(N)=O)=C(C)Nc2nc(-c3cccc(C)c3)nn21 (stereo not given) | -1.4 | -3.4 | -25.1 | -9.4 | 0.3 | -0.3%
CCn1c(C)cc2c(c1=O)C(c1ccccc1Br)C(C#N)=C(N)O2 (stereo not given) | -5.6 | 0.2 | -10.1 | 10.7 | -0.9 | -0.6%
CC(=O)Nc1ccc(Nc2ccc(N3C(=O)CCCC3=O)cc2[N+](=O)[O-])cc1 | -12.0 | -4.0 | -25.4 | -14.3 | 0.2 | 3.6%
O=C(CN1CCN(c2ccc(C(F)(F)F)cn2)CC1)Nc1ccc2c(c1)OCO2 | 14.2 | -1.8 | -1.9 | -0.7 | 1.3 | 2.5%
CCCN1CCN(C(=O)c2nn(-c3ccc(OC)cc3)c(=O)c3c2c2ccccc2n3C)CC1 | 1.3 | -7.0 | -8.5 | 13.3 | 0.1 | -0.4%
COc1cc2oc(=O)c(CC(=O)NCCc3ccccc3)c(C)c2cc1Cl | x | x | x | 43.4 | -0.7 | 1.4%
Cn1cnc(S(=O)(=O)N2CCCC(c3cc(C(=O)Nc4ccc(F)c(Cl)c4)no3)C2)c1 (stereo not given) | -4.0 | 3.3 | -2.9 | x | 0.7 | -0.7%
O=C(Nc1ccc(OC(F)(F)F)cc1)C1CCCN(C(=O)c2ccc(Cl)cc2)C1 (stereo not given) | 5.5 | 5.1 | 1.0 | 8.6 | 0.6 | 3.1%
O=C(C1CCC(=O)N(C2CC2)C1)N1CCN(c2cccc(Cl)c2)CC1 (stereo not given) | 1.8 | 0.7 | 6.8 | -6.2 | 0.5 | -0.8%
COCCn1c(=O)[nH]c2cc(C(=O)Nc3cc(C)cc(C)c3)ccc2c1=O | -15.2 | 1.2 | 1.9 | 4.8 | -0.3 | 20.8%
Cc1c2c(c(C)n1C)C(C(=O)NC1CCCCC1)N(Cc1ccccc1)C2=O (stereo not given) | -7.5 | -7.5 | -26.6 | 13.6 | -0.7 | 1.6%
Cc1ccc(Sc2c(C)nn(C(C)(C)C)c2OC(=O)CC(C)C)cc1 | x | x | x | -12.2 | -0.5 | u
S=C(NCc1ccccn1)Nc1ccc(Cl)cc1Cl | -1.7 | -5.1 | -0.2 | 39.4 | 3.3 | 1.0%
O=C(Nc1ccc(Br)c2cccnc12)c1ccc(Cn2cc(Cl)cn2)o1 | -1.6 | -2.2 | -4.4 | 29.4 | 0.2 | 0.9%
COc1cc(/C=C/c2ccc3cccc(O)c3n2)cc(OC)c1OC | 18.7 | -3.3 | -11.2 | 11.3 | 1.1 | 6.6%
CCCCN(C(=O)c1ccc(C)o1)c1c(N)n(CC(C)C)c(=O)[nH]c1=O | 5.2 | 0.1 | -0.1 | 29.6 | -0.5 | 0.3%
O=C(NCCc1ccccc1)c1nn(-c2ccccc2Cl)nc1CO | x | x | x | 37.0 | 1.3 | 0.3%
O=C(c1ccccn1)N1CCN(c2ccc(C(F)(F)F)cn2)CC1 | 1.4 | -0.8 | -4.3 | 5.2 | 0.1 | 7.8%[38.3 µM]
COC(=O)C(C(=O)OC)C(C[N+](=O)[O-])c1ccc(OC)c(OC)c1 (stereo not given) | 0.8 | 0.4 | -4.1 | -5.4 | -0.3 | -0.8%
CC(=O)Nc1ccc(OCCCNC(=O)c2c(-c3ccccc3)noc2C)cc1 | 9.4 | -0.8 | -1.5 | -0.4 | -0.5 | -0.6%
O=C(NCCc1ccccc1)c1cccnc1 | 4.8 | -2.9 | -1.6 | -15.6 | 0.0 | -1.7%
O=C(CCc1ccccc1)Nc1ccnn1C1CCN(C/C=C/c2ccccc2)CC1 | 4.6 | -1.2 | -47.1 | 11.2 | 0.0 | 0.5%
COc1ccccc1NC(=O)C(C)OC(=O)CCCN=C1NS(=O)(=O)c2ccccc21 (stereo not given) | -22.5 | -3.4 | -22.3 | 45.5 | -0.6 | -1.7%
CCN(c1cccc(C)c1)c1nc2ccsc2c(=O)s1 | 71.8 | 1.3 | -1.8 | -12.3 | 1.1 | 0.8%
CCOc1cc(CNC(=O)C2CCN(c3nc4ccccc4[nH]3)CC2)cc(OCC)c1OCC | x | x | x | -10.9 | -0.3 | -1.2%
CCc1noc(C)c1C(=O)N(Cc1ccccc1)c1c(N)n(CCOC)c(=O)[nH]c1=O | -3.8 | -4.4 | -0.8 | 20.3 | 0.0 | -1.4%
COCCN(C(=O)COC(=O)CNC(=O)c1cccs1)c1c(N)n(Cc2ccccc2)c(=O)[nH]c1=O | 3.2 | 1.6 | -4.7 | 7.6 | -0.2 | 0.3%
COc1cccc(N2CCN(C(=O)CCCCCn3c(=S)[nH]c4cc5c(cc4c3=O)OCO5)CC2)c1 | 2.2 | 10.4 | 5.4 | -2.1 | 1.8 | 5.3%
O=C(CCS(=O)(=O)c1ccccc1)Nc1ccc2c(c1)C(=O)NC2=O | -14.7 | -4.4 | -9.3 | -8.5 | -0.1 | 1.1%
CCOC(=O)Cn1c(=O)oc2cc(S(=O)(=O)NCCc3ccc(C)cc3)ccc21 | -3.5 | 0.7 | -1.4 | 1.8 | -0.8 | 0.4%
CSc1ccc(Cn2c(C)c(C(=O)NCc3ccc(C(C)C)cc3)sc2=O)cc1 | -7.3 | -5.1 | 0.8 | x | 0.7 | -0.1%
COc1ccccc1C(=O)COC(=O)CN1C(=O)NC2(CCCC2)C1=O | 4.1 | -1.6 | 8.6 | 3.5 | -0.5 | -2.1%
COc1ccc(N(C)C(=O)C2CCCN2S(=O)(=O)c2cccc3nsnc23)c(OC)c1 (stereo not given) | 18.6 | -4.7 | -2.8 | 4.9 | -0.8 | -0.5%
CCOC(=O)C1=C(c2ccccc2)NC(=S)NC1c1cc([N+](=O)[O-])ccc1OC (stereo not given) | -3.4 | -2.2 | -4.1 | 27.9 | 1.4 | 0.3%
Cc1nc(NC(=O)CSc2nnc(Cn3nnc4ccccc43)n2C)sc1C | 11.0 | -2.0 | -26.1 | 6.2 | -0.3 | 9.0%
CCc1ccc(C(=O)c2cn(CC(=O)Nc3ccc4c(c3)OCO4)c3ccc(Cl)cc3c2=O)cc1 | x | x | x | -6.3 | 0.0 | 5.0%
Cc1ccc2[nH]c3c(=O)n(CCCN4CCOCC4)cnc3c2c1 | -1.9 | 0.0 | 7.6 | 5.2 | -1.0 | 0.3%
Cc1ccc(CNC(=O)C2CCN(S(=O)(=O)Cc3ccccc3)CC2)cc1 | x | x | x | 22.7 | -0.8 | 1.6%
CCCCN(C(=O)NC(=O)Nc1ccccc1OC)S(C)(=O)=O | 1.0 | -1.2 | -27.8 | -5.2 | 1.2 | 5.2%[38.3 µM]
OC(c1ccc(Cl)c(F)c1)c1ncc(-c2ccccc2C(F)(F)F)[nH]1 (stereo not given) | -8.7 | -5.1 | -8.3 | x | 0.0 | 2.2%
Cc1cc(NC(=O)CSCC(=O)OCC(=O)Nc2cc(C)c(C)cc2[N+](=O)[O-])no1 | -21.3 | 4.7 | -4.4 | -2.9 | 1.2 | -0.5%
CCOC(=O)c1cnc2nc(NCc3ccc(OC)c(OC)c3)[nH]n2c1=O | 0.0 | -2.4 | -2.5 | 7.0 | -0.9 | 0.2%
O=Cc1ccc(F)c([B-](F)(F)F)c1 | 8.8 | -1.2 | x | -3.7 | -0.1 | -1.2%
CS(=O)(=O)N(Cc1ccccc1)c1ccccc1C(=O)N1CCN(c2ccccc2)CC1 | -1.6 | -2.8 | -17.1 | 16.9 | -0.3 | 1.4%
O=C(c1ccc2c(c1)OCO2)N1CCN(S(=O)(=O)c2ccc(Cl)cc2)CC1 | -21.0 | -2.6 | -9.4 | 0.9 | -1.5 | 0.1%
Cc1c(NS(=O)(=O)c2ccc(N)cc2)c(=O)n(-c2ccccc2)n1C | 4.7 | 6.0 | -43.0 | 6.4 | 0.8 | -1.7%
O=C1NCCN1C(=O)c1cccc(Cl)c1 | 3.6 | 0.2 | -0.4 | -24.1 | 0.2 | -0.1%
CCOC(=O)N1CCC(Nc2ccc3nnc(-c4ccccc4)n3n2)CC1 | u | -0.2 | 2.2 | 5.1 | 0.7 | 10.3%
Fc1ccc(OCCOCCN2CCCC2)cc1 | 9.9 | 2.7 | -4.6 | 34.4 | 0.2 | 0.2%
N#Cc1c(NC(=O)CCCN2C(=O)c3ccccc3C2=O)oc(-c2ccccc2)c1-c1ccccc1 | -2.1 | -1.8 | -6.0 | -2.6 | 2.7 | 1.7%

Limited to Six1-Eya2 inh and TRPML1 blocker, for some of the entries so far:
Structure,Six1-Eya2 inh,TRPML1 blocker
CSc1ccc(Cn2c(C)c(C(=O)NCc3ccc(C(C)C)cc3)sc2=O)cc1,-7.3,x
COc1ccccc1C(=O)COC(=O)CN1C(=O)NC2(CCCC2)C1=O,4.1,3.5
